# NPYLR7 ag – agonists of mosquito NPYLR7 receptor, primary screen, cell-based, Aedes aegypti, calcium fluorescence, mosquito biting behavior; Aedes aegypti neuropeptide Y-like receptor 7 (NPYLR7); HEK293T NPYLR7/Galpha15, GCaMP6s calcium fluorescence; activation, % at 10 µM; actives 0.15% (n = 270,000); in the data active means activation above about 40%;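 further: 0% = vehicle and 100% = reference agonist at the receptor; some compounds past the cut are filed as inactive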
# NPYLR7 ag max-min – second read-out of NPYLR7 ag, no call of its own (marks repeat the call); activation, %; measured here: Max-Min RFU normalised activation; some inactives read as strong as hits;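 span of the calcium signal over five minutes; 0% = vehicle and 100% = native peptide agonist; compound fluorescence can raise it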
# The depositor's hits bear a star.
smiles,NPYLR7 ag,NPYLR7 ag max-min
Cc1ccc(/C=C/S(=O)(=O)N2CC(C(N)=O)c3ccccc32)cc1 (configuration not stated),8,4
O=C(NC1CC1)c1ccc(CSc2nnc(-c3ccncc3)n2-c2cccc(C(F)(F)F)c2)cc1,8,17
CCN1CCC(NCc2ccc(NC(C)=O)cc2)CC1,10,3
O=C(CN1CCN(c2ccc(F)cc2)CC1)NC1CCCC1,21,13
CN(C)S(=O)(=O)c1ccc(C(=O)Nc2ccc(C#N)cc2)o1,-1,-4
CC(=O)c1[nH]c(C)c(C(=O)N2CCc3nc(C)n(C)c(=O)c3CC2)c1C,9,4
CN(C)c1nc(Cl)nc(Oc2ccc(=O)[nH]n2)n1,13,5
CCN1CCCC1CNCC(O)COc1c(C)cccc1C (configuration not stated),0,-1
O=C(CS(=O)(=O)Cc1ccc(Cl)cc1)NCc1cccs1,-1,-3
O=C(NC1(c2ccc(F)cc2)CCC1)c1ccc[nH]c1=O,0,0
O=C(Nc1ccc(Oc2ccccc2F)cc1)C1CCN(C2Cc3ccccc3C2)CC1,-2,-5
CCOC(=O)CCN(CCl)C(=O)OC,-4,-10
N#Cc1c(SCC(=O)c2ccc(Cl)cc2)nc2c(c1-c1ccc(F)cc1)CCCC2,-8,-13
COc1ccc(-c2sc(C)nc2C)c(OC)c1OC,7,4
Cn1cc(C(=O)NS(=O)(=O)/C=C/c2ccccc2)cn1,2,1
Cc1ccc(NC(=O)CSc2nnc3nc(C)cc(C)n23)c(Cl)c1,0,0
Cc1[nH]n(-c2nc(-c3ccc(Cl)cc3)cs2)c(=O)c1N=Nc1ccc([N+](=O)[O-])cc1Cl,-8,-12
COc1ccc(CNC2CCCC2)cc1-c1ccc(S(C)(=O)=O)cc1,5,3
CCn1nc(C(=O)Nc2cc(Cl)ccc2OC)c2ccccc2c1=O,7,2
c1ccc2c(-n3cnnc3C3CCC3)cccc2c1,2,5
COc1ccc(-c2[nH]ncc2CNCCCSC)cc1F,4,-2
Cc1ccc2oc(-c3cccc(NC(=O)c4cccc(I)c4)c3C)nc2c1,1,-3
O=C(NNC(=O)c1ccco1)c1cccc(OC(F)F)c1,6,1
Brc1cc2c(cc1CSc1nnnn1Cc1cccs1)OCO2,12,16
CCC(C(=O)NCc1ccccn1)n1c(=O)n(-c2cccc(C(C)=O)c2)c(=O)c2ccccc21 (configuration not stated),5,12
Cn1c(SCC(=O)c2ccccc2)nnc1-c1ccccc1F,0,-3
CN(Cc1ncccc1C(=O)O)Cc1nc2ccccc2n1C,-1,10
c1cncc(CNc2cc(-c3ccc4c(c3)OCO4)c3cc[nH]c3n2)c1,-4,-8
Cc1ccc(CNC(=O)CCC2CCCN(C(=O)c3cc(C(C)C)no3)C2)o1 (configuration not stated),21,8
Cc1c(C2CCN(CCc3ccccc3)CC2)noc1-c1ccc(Cl)cc1,-15,-21
Cc1cc2cc(CNC(=O)/C=C\c3ccccc3)ccc2n1C,9,3
NC(=O)c1ccc(S(=O)(=O)N(Cc2cccs2)CC2CCCO2)cc1 (configuration not stated),-1,-3
Cc1n[nH]c(C)c1S(=O)(=O)Nc1ccccc1C(=O)NC1CC1,-2,-3
CCOCCCNC(=O)c1cc(NC(=O)CCC(=O)OCC)ccc1N1CCN(c2ccccc2OC)CC1,-2,2
Cc1nn(Cc2c(Cl)cccc2Cl)c(Cl)c1CNCCCOCC1CCCO1 (configuration not stated),6,7
CC1CC(C)CN(C(=O)C2CCCN2S(=O)(=O)c2ccc(Br)cc2)C1 (configuration not stated),2,1

# 2 entries picked at random from those above:
smiles,NPYLR7 ag,NPYLR7 ag max-min
COc1ccc(CNC2CCCC2)cc1-c1ccc(S(C)(=O)=O)cc1,5,3
c1cncc(CNc2cc(-c3ccc4c(c3)OCO4)c3cc[nH]c3n2)c1,-4,-8

# (continued)
smiles,NPYLR7 ag,NPYLR7 ag max-min
Cn1nc(-c2cccc(NS(=O)(=O)c3ccc(Oc4ccccc4)cc3)c2)ccc1=O,0,0
CC(C)N(Cn1nc(-c2ccncc2)n(-c2ccc(Cl)cc2)c1=S)C(C)C,3,-1
Cc1ccc(C2(O)CCN(Cc3nc(-c4cccnc4)no3)CC2)nc1,-1,-7
CNC(=O)CCNC(=O)/C=C/c1cc(C)n(C2CCCCC2)c1C,0,2
CN(Cc1ccc2ncccc2c1)C(=O)[C@@H]1C[C@H](N)CN1C,10,6
Cc1[nH]c2ccccc2c1CC(=O)N1CCCC2(CNC(=O)O2)C1 (configuration not stated),9,9
CC1Sc2ccc(C(=O)N(C)C3CCCCC3)cc2NC1=O (configuration not stated),17,3
Cc1cc(C)n(Cc2cc(C(=O)N3CCC3c3ccc(F)cc3)n[nH]2)n1 (configuration not stated),-1,-4
COc1ccc(N(CC(=O)Nc2c(C)nn(C)c2C)C(C)C)cc1F,8,5
CCCCOc1ccc(C(=O)N(CC(=O)Nc2cc(-c3ccccc3)nn2-c2ccc(C)cc2)C(C)C)cc1,-1,11
O=C(O)c1ccc(S(=O)(=O)N(Cl)Cl)cc1,-1,-8
CCCCCCCOc1ccc(C(=O)N2CCc3c([nH]c4ccc(OC)cc34)C2c2ccccc2OC)cc1 (configuration not stated),4,-7
COC(=O)[C@H]1C[C@@H](O)CCN1C(=O)c1cc(C)c(-c2ccccc2)s1,-3,-12
Cc1ccccc1CN1C(=O)COCc2ccc(-c3cncnc3)cc21,7,4
Nc1nc(SCc2cccnc2)[nH]c(=O)c1NC(=O)c1ccco1,2,1
CCCCCCc1ccc(C2=N/C(=C\C=C\c3ccccc3)C(=O)O2)cc1,-1,-8
c1ccc(-c2cc(Cn3cnnc3)[nH]n2)cc1,-2,-1
CCOC(=O)C1=C(COC(=O)c2cnc(C)cn2)NC(=O)NC1C (configuration not stated),17,18
Cc1ccc(CN(C)C(=O)CCN=C2NS(=O)(=O)c3ccccc32)c(C)c1,4,1
CCC(C(=O)N(Cc1cc(NC(=O)c2ccccc2Cl)ccc1N(C)C)C1CC1)c1ccccc1 (configuration not stated),-1,9
CCN(Cc1nccn1Cc1ccc(C)cc1)C(=O)C1CCCC1,6,8
O=C(COc1cccc2ccccc12)N1CCCC(O)C1 (configuration not stated),-3,-7
O=C(NC1=N[C@@]23CO[C@H](c4ccccc4)C[C@@H]2CC(=O)[C@H]3S1)C1CC1,2,8
CN1CCC(Cn2cnc(-c3ccccc3)c2-c2cn[nH]c2-c2ccccc2)C1 (configuration not stated),-13,-16
O=C(c1ccc(C2SCCCS2)cc1)N1CCc2ccccc21,-1,4
COc1ccc(OC)c2sc(N(Cc3cccnc3)C(=O)/C=C/c3cccs3)nc12,-11,-12
Cc1cc(C)c2[nH]c(O)c(N=Nc3ccc([N+](=O)[O-])cc3[N+](=O)[O-])c2c1,24,8
COc1cccc(-c2cc(C(=O)O)nc3cc(-c4ccc(Cl)cc4)nn23)c1,-5,-1
CCCc1nc(N2CCN(C(=O)c3cccs3)CC2)c2c(-c3cccc(C(F)(F)F)c3)noc2n1,13,1
COC(=O)c1sc(N2CCOCC2)nc1N,0,-2
CC(C)(C)C1CCC(OC(=O)Cn2cnc([N+](=O)[O-])n2)CC1 (configuration not stated),1,-1
COc1ccccc1/C=N\Nc1cc(N(C)C)nc(N(C)C)n1,3,-6
COCC1(C(=O)N2CCC(c3nc4c(C)cccc4[nH]3)CC2)CCC1,13,2
CC(C)CC(CNS(=O)(=O)c1cccc(Cl)c1)N1CCOCC1 (configuration not stated),-2,-4
O=C(NCCCCN1CCOC(c2ccccc2)C1)C(=O)NC1CCCC1 (configuration not stated),-9,-11
COc1cccc(CN2CCN(Cc3c(C)cc(C)cc3-n3cccn3)CC2CCO)c1 (configuration not stated),-3,-4
COc1cc2nc(-c3ccc(C)o3)cc(C(=O)NC(C)c3ccccc3)c2cc1OC (configuration not stated),-4,-6
CCN(Cc1cc(Cl)ccc1OC)C(=O)c1cccnc1NC,13,2
CNC(=O)CN(C)S(=O)(=O)c1ccccc1-c1ccccc1,0,0
Cc1ccc(/[N+]([O-])=C/c2ccc(Br)cc2)cc1,-5,-6
CN(C(=O)OC(C)(C)C)C1CCN(C(=O)C2CC2(Cl)Cl)C1 (configuration not stated),4,3
COC(=O)c1ccc(Cn2c(C)c(C(=O)NCc3cccc(C(F)(F)F)c3)sc2=O)o1,0,1
COc1ccc(-c2cc(C(=O)Nc3ccc(F)cc3)n3nc(C(C)(C)C)cc3n2)cc1,13,16
CC1C2(C)OC(=N)C(C#N)(C(c3ccccc3)O2)C1(C#N)C#N (configuration not stated),24,30
C=CCn1c(SCCO)nc2sc3c(c2c1=O)CCCC3,-1,-3
O=C1NCCN(CCCc2ccccc2)C1CC(=O)N1CCCCO1 (configuration not stated),0,-4
CO[C@H]1C=CO[C@@]2(C)Oc3c(C)c(O)c4c(O)c(c5c(nc6cc(C)ccn65)c4c3C2=O)NC(=O)C(C)=CC=C[C@H](C)[C@H](O)[C@@H](C)[C@@H](O)[C@@H](C)[C@H](OC(C)=O)[C@@H]1C,-5,-8
NCc1ccc(CS(N)(=O)=O)cc1,2,1
CC(C)CN(CC1CCCO1)C(=O)CN1CC2=C(C1=O)C(c1ccccc1C(F)(F)F)NC(=O)N2C (configuration not stated),0,10
Clc1cc(CSc2nccn2C2CC2)cc2c1OCO2,7,6
O=C(Cc1ccc(S(=O)(=O)N2CCOCC2)s1)Nc1nnc(C2CC2)s1,7,19
Nc1nc2c(s1)CCC2,11,8
O=C(CSc1ncccn1)NCc1cc(-c2ccc3c(c2)OCCO3)on1,11,11
CCNC(=S)N(CCOC)Cc1c(-c2cccc(C)c2)noc1N1CCCC1,8,10
COC(=O)[C@@H]1C[C@@H](NC(=O)Cn2ncc3ccccc32)CN1C,-3,-2
CCc1nc2ccc(C(=O)NCCCN3CCCC3=O)cn2c1N(C)C(=O)c1cccc(OC)c1,4,19
CCn1c(C2CCN(Cc3cnn4c(C)cc(C)nc34)CC2)nn(C)c1=O,8,7
C=CCN1C(=O)C2(c3ccccc31)c1c(oc3ccccc3c1=O)C(=O)N2CCO (configuration not stated),8,6
CCOC(=O)c1cn2nc(-c3cccnc3)nc2nc1C,15,17
CCOC(=O)COc1cccc(NC(=O)c2ccc(F)cc2Br)c1,15,16

# (next part)
smiles,NPYLR7 ag,NPYLR7 ag max-min
COCCNc1nc(N)c([N+](=O)[O-])c(NCCO)n1,18,12
COc1ccc(C)cc1CN(C)CC(=O)N1CCNC1=O,-1,-1
N#Cc1c(N)nc2c(c1-c1ccco1)CCCC2,6,3
C=C[C@@](C)(O)CCC1C(=C)C[C@H](OC(C)=O)C2C(C)(C)CCCC12C (some centres not stated),-4,-11
CCC(CC)CN1CCc2c(sc(S(=O)(=O)NCC3CCCO3)c2C(=O)OC)C1 (configuration not stated),2,3
Cc1ccccc1Cn1c(=O)c2c(nc3n(Cc4ccco4)c(C)c(C)n23)n(C)c1=O,-2,5
Cc1cc2cc(CCNS(C)(=O)=O)c(=O)[nH]c2cc1C,3,3
COC(=O)c1sccc1NC(=O)C=Cc1cc(OC)ccc1OC,-11,-13
CCc1[nH]nc(C(=O)NC2CCCN(CC3CCCCC3)C2)c1C (configuration not stated),3,0
O=C(NCC1(c2ccccc2)CCCCC1)c1ccoc1,9,2
COCCN1CCC(C(=O)N2CCOc3ccc(Cl)cc3C2)C1 (configuration not stated),-1,8
FC(F)Oc1ccc(N=Cc2cccs2)cc1,4,3

# A stretch of the results above:
smiles,NPYLR7 ag,NPYLR7 ag max-min
C=CCN1C(=O)C2(c3ccccc31)c1c(oc3ccccc3c1=O)C(=O)N2CCO (configuration not stated),8,6
CCOC(=O)c1cn2nc(-c3cccnc3)nc2nc1C,15,17
CCOC(=O)COc1cccc(NC(=O)c2ccc(F)cc2Br)c1,15,16
COCCNc1nc(N)c([N+](=O)[O-])c(NCCO)n1,18,12
COc1ccc(C)cc1CN(C)CC(=O)N1CCNC1=O,-1,-1
N#Cc1c(N)nc2c(c1-c1ccco1)CCCC2,6,3
C=C[C@@](C)(O)CCC1C(=C)C[C@H](OC(C)=O)C2C(C)(C)CCCC12C (some centres not stated),-4,-11
CCC(CC)CN1CCc2c(sc(S(=O)(=O)NCC3CCCO3)c2C(=O)OC)C1 (configuration not stated),2,3
Cc1ccccc1Cn1c(=O)c2c(nc3n(Cc4ccco4)c(C)c(C)n23)n(C)c1=O,-2,5
Cc1cc2cc(CCNS(C)(=O)=O)c(=O)[nH]c2cc1C,3,3
COC(=O)c1sccc1NC(=O)C=Cc1cc(OC)ccc1OC,-11,-13
CCc1[nH]nc(C(=O)NC2CCCN(CC3CCCCC3)C2)c1C (configuration not stated),3,0
O=C(NCC1(c2ccccc2)CCCCC1)c1ccoc1,9,2
COCCN1CCC(C(=O)N2CCOc3ccc(Cl)cc3C2)C1 (configuration not stated),-1,8
FC(F)Oc1ccc(N=Cc2cccs2)cc1,4,3

# (further entries)
smiles,NPYLR7 ag,NPYLR7 ag max-min
CCOC(=O)N1CCN(c2c(NCC3CCCO3)c(=O)c2=O)CC1 (configuration not stated),1,2
CCOC(=O)Cn1c(=O)c2c(nc3n2CCN3c2ccccc2)n(C)c1=O,8,4
CN(c1ccccc1)S(=O)(=O)c1ccc(OCCCC(=O)O)c(F)c1,22,27
Cc1ccc(Cc2nc(N3CCCN(C(=O)CCc4ccccc4)CC3)c3c(-c4ccc5ccccc5c4)noc3n2)cc1,18,21
COc1ccc2c(-c3ccccc3)cc(=O)n(CC(O)c3ccc(F)cc3)c2c1 (configuration not stated),-3,-4

# Bioassay records deposited in PubChem BioAssay by Fisher Drug Discovery Resource Center.

# Some of the compounds tested; the hit share may differ from the screen's.
